Compound activity deposited in PubChem by NMMLSC.
Bead autofluor: compound fluorescence in toxin protease inhibitor counterscreen. compound autofluorescence counterscreen, microsphere flow cytometry; active compounds read high. hit rate 3.1% among 360,000. AID 624483. fluorescence intensity (no concentration beside the values);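 active means at least 3 SD above the mean of all compounds, about 16000 in these data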;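 further: 100 nL of 1 mM stock went into each well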
* marks the source's active call; other numbers are inactive results. The list is partial; the hit share may differ from the screen's.

SMILES	Bead autofluor
C[C@H](CO)N1C[C@H](C)[C@H](CN(C)C(=O)c2ccccc2)OCc2ccccc2-c2c(n(C)c3ccccc23)C1=O	3559
CC(=O)NC(C)(c1ccccc1)c1nc(-c2csc3ccccc23)cs1 (stereo unspecified)	3701
CC1(C(=O)Nc2ccc3ccccc3c2)CCC(=O)N1CC(F)(F)F (stereo unspecified)	4070
Cc1ccc(CN2CC(C(=O)Nc3nc(C)cs3)CC2=O)cc1 (stereo unspecified)	3594
Cc1cc(C)cc(Cn2cc(CN3CC(N4CCCCC4)CS3(=O)=O)nn2)c1 (stereo unspecified)	5576
O=C(NCC1CC1)C1Cc2c(-c3ccc(Cl)cc3)ccnc2O1 (stereo unspecified)	2950
CCCCN1C[C@H](c2ccc(Br)cc2)[C@@H](CC(=O)Nc2ccc(Br)cc2)C1=O	3427
O=C1CCCCCC[C@@H](O)[C@H](O)C[C@H](c2ccccc2)O1	6004
CC1(C(=O)NS(=O)(=O)c2ccc(Cl)cc2)CCN1C(=O)c1ccc(C2CCCCC2)cc1 (stereo unspecified)	4085
COc1ccc(CCNC(=O)CCCn2c(=S)[nH]c3cc4c(cc3c2=O)OCO4)cc1OC	3809
C[C@H](CO)N1C[C@H](C)[C@@H](CN(C)C(=O)Nc2ccccc2F)Oc2ncc(Br)cc2C1=O	4054
C(=C\c1ccccc1)/CN1CCN(C(c2ccccc2)c2nnnn2-c2ccc3c(c2)OCCO3)CC1 (stereo unspecified)	5970
Cc1ccc(C(O)c2ncc(-c3ccccc3Cl)[nH]2)c(C)c1 (stereo unspecified)	3939
Cc1cccc(NC(=O)Oc2ccc(Cl)c3cccnc23)c1	3417
CCCOc1ccc(F)cc1-c1cc(C(=O)NC(C)C)[nH]n1	3022
CCCc1nc2ccc(Br)cn2c1Cc1cccc(Cl)c1	6589
Cn1ncc([N+](=O)[O-])c1C(=O)Nc1ccccc1C#N	4016
CC(C)OCCc1cccc[n+]1[O-]	6119
CC(=O)NC(c1ccccc1)c1nc(-c2ccccc2C)cs1 (stereo unspecified)	3562
CC(C)(C)Cc1c(-c2ccccc2)nc2ccc(Cl)cn12	4670
Cc1[nH]c2ccccc2c1C(=O)C(=O)NCc1nnnn1-c1cccc(F)c1	4115
O=C(NC(c1ccc(F)cc1)c1ccc2ccccc2n1)C1CCN(CCOc2ccc(F)cc2)CC1 (stereo unspecified)	4280
Cc1ccc(NC(=O)c2ccc(OCC3CCCO3)cc2)cc1Cl (stereo unspecified)	3691
OC[C@@H]1CN(Cc2ccc3c(c2)OCO3)C[C@H](n2cnc3c(NC4CCCC4)ncnc32)O1	3740
Cc1cccc(C)c1-n1nnnc1-c1nc2cc3ccccc3cc2[nH]c1=O	5125

6 entries from above, with bars between the fields.
molecule | Bead autofluor
CC(C)(C)Cc1c(-c2ccccc2)nc2ccc(Cl)cn12 | 4670
Cc1[nH]c2ccccc2c1C(=O)C(=O)NCc1nnnn1-c1cccc(F)c1 | 4115
O=C(NC(c1ccc(F)cc1)c1ccc2ccccc2n1)C1CCN(CCOc2ccc(F)cc2)CC1 (stereo unspecified) | 4280
Cc1ccc(NC(=O)c2ccc(OCC3CCCO3)cc2)cc1Cl (stereo unspecified) | 3691
OC[C@@H]1CN(Cc2ccc3c(c2)OCO3)C[C@H](n2cnc3c(NC4CCCC4)ncnc32)O1 | 3740
Cc1cccc(C)c1-n1nnnc1-c1nc2cc3ccccc3cc2[nH]c1=O | 5125

Shown as labelled records: entries from further up
CC(=O)NC(c1ccccc1)c1nc(-c2ccccc2C)cs1 (stereo unspecified)
  Bead autofluor: 3562
CC(C)(C)Cc1c(-c2ccccc2)nc2ccc(Cl)cn12
  Bead autofluor: 4670

More results follow.
SMILES	Bead autofluor
CC1(C(=O)NS(=O)(=O)c2ccccc2Cl)CCN1C(=O)C1(c2ccccc2)CCCC1 (stereo unspecified)	3077
Cc1ccc(S(=O)(=O)CCC(=O)Nc2cc(C)on2)cc1	3127
CCOC(=O)[C@]12CCCC=C1N(Cc1ccco1)C(=O)[C@H](CC(=O)NCCCN1CCCC1=O)C2	5546
O=S1(=O)CC(N2CC=CC2)CN1Cc1ccccc1 (stereo unspecified)	4213
COCCNC(=O)C1(C)CCN(C(=O)c2cc(-c3ccccc3)cs2)C1 (stereo unspecified)	2934
COc1ccccc1N1CCN(C(=O)c2cc(-c3ccccc3)nc3c2cnn3C(C)C)CC1	3989
CCN1C(=O)[C@H]2[C@@H](c3ccc(C(F)(F)F)cc3)N[C@]3(CCCN(Cc4ccc(Cl)cc4)C3=O)[C@H]2C1=O	3673
CC1(C)CC(=O)C(C(c2ccc3c(c2)OCO3)C2C(=O)CC(C)(C)CC2=O)C(=O)C1	6007
C[C@@H]1CN([C@H](C)CO)C(=O)CCCn2nncc2CO[C@@H]1CN(C)C(=O)NC1CCCCC1	3821
COc1ccc(-c2nc3cc(C)c(Br)c(C)n3c2Cc2ccccc2)cc1OC	5822
O=C1CCC(C(=O)OCC(=O)Nc2ccc(OC(F)F)cc2)=NN1	3950
C[C@H]1COc2cc(N3CC[C@H](O)C3)ccc2S(=O)(=O)N1	4350
CCOC(=O)C1=CC[C@@H](c2ccccc2)N(S(=O)(=O)c2ccc(C)cc2)[C@H]1C=C(C)C	6013
Cc1nnc(SCC(=O)NC2(C#N)CCCCC2)n1N	3698
O=C1[C@H]2[C@@H](c3ccccc3)N[C@]3(CCCN(Cc4ccc(Cl)cc4)C3=O)[C@H]2C(=O)N1Cc1ccccc1	3450
CC1(C(=O)Nc2ccc3ccccc3c2)CCC(=O)N1CCCn1ccnc1 (stereo unspecified)	4195
Cc1cccnc1C(NC(=O)C1CCN(CCCc2ccccc2)CC1)c1ccc(Cl)cc1 (stereo unspecified)	4180
COC(=O)[C@H]1C[C@H](OC(=O)Nc2cccs2)[C@@]2(O)CN(S(=O)(=O)c3ccc(C)cc3)CC2[C@H]1C(=O)OC (stereo partly specified)	2916
Cc1cc(NC(=O)CN2C(=O)/C(=C/c3ccc(C(C)C)cc3)SC2=S)no1	2959
COC(=O)c1ccc2nc(C3CCCCC3)c(Cc3cccc(Cl)c3)n2c1	7233
COc1ccc(CN2CCC2(C)C(=O)NCCc2c[nH]c3ccccc23)c2ccccc12 (stereo unspecified)	4001
Cc1ccccc1S(=O)(=O)NC(=O)C1(C)CCN1C(=O)COc1ccc(Cl)cc1 (stereo unspecified)	3546
CN(C)c1cccc(CNC(=O)c2ccc3sc([C@@H]4O[C@H](CO)[C@H](O)[C@H](O)[C@H]4O)nc3c2)c1	2825
Cc1ccsc1CNC(=O)C1(C)CCN1C(=O)C(C)C (stereo unspecified)	3720
CCCCNC(=O)C1(C)CCN1C(=O)Cc1cccc2ccccc12 (stereo unspecified)	2999

Single entries from the entries so far:
CCCCNC(=O)C1(C)CCN1C(=O)Cc1cccc2ccccc12 (stereo unspecified) @ Bead autofluor: 2999
Cc1ccc(S(=O)(=O)CCC(=O)Nc2cc(C)on2)cc1 @ Bead autofluor: 3127

(further entries)
SMILES	Bead autofluor
CCN(CC)CCCC(C)n1c(C)cc(C(=O)NS(=O)(=O)c2ccc(C)cc2)c1C (stereo unspecified)	4230
Cc1cccc(N=Cc2ccccc2O)c1C	3921
CCOc1cc2c(c3c1C(c1ccccc1)N(S(=O)(=O)c1ccc(C)cc1)C3)C(=O)C=CC2=O (stereo unspecified)	5053
COc1ccc(CN2CCN(Cc3c[nH]c4ccccc34)CC2)c(OC)c1	3024
CCOc1ccc(NS(=O)(=O)c2ccc(C(=O)NCC3CCCO3)cc2)cc1 (stereo unspecified)	3328
O[C@H]1CN(CC2CCCCC2)[C@@H](c2ccc(Cl)cc2)C[C@@H]1n1cc(-c2ccc(F)cc2)nn1	2993
Cc1ccc2c(C)c(C(=O)N3CCC(C(N)=O)(N4CCCCC4)CC3)oc2c1C	4171
c1ccc(N2CCN(c3nccn4ccnc34)CC2)nc1	3076
CN(Cc1ccccc1)C(=O)[C@@H]1CCCN1C(=O)[C@@H]1CCCN1C(=O)c1ccc(Cl)cc1	6328
CN(C)C1CN(Cc2cn(Cc3ccccc3)nn2)S(=O)(=O)C1 (stereo unspecified)	4322
O=S1(=O)CC(N2CCN(c3ccccn3)CC2)CN1C1CCCCC1 (stereo unspecified)	4915
Cc1ccc(C)c(C(O)c2ncc(-c3ccc(F)cc3)[nH]2)c1 (stereo unspecified)	2966
CCCS(=O)(=O)NC(=O)C1(C)CCN(C(=O)c2c(F)ccc(C)c2F)C1 (stereo unspecified)	4311
CC(C)C[C@@H](COCc1cccc(Cl)c1)N1CCN(C(=O)c2cccc(C(F)(F)F)c2)CCC1=O	4228
CC(=O)NCCNC(=O)C1(C)Cc2c(-c3ccc(NC(C)=O)cc3)ccnc2O1 (stereo unspecified)	3583
CN1C(=O)[C@H]2[C@@H](c3ccccc3)N[C@]3(CCCN(Cc4ccc(F)cc4)C3=O)[C@H]2C1=O	3915
C=CCn1c(O)c(N=Nc2ccccc2[N+](=O)[O-])c2ccccc21	3795
Cn1cnc(S(=O)(=O)N2CCCCC2c2cc(C(=O)Nc3cccc(C#N)c3)no2)c1 (stereo unspecified)	3832
C#CCNC(=O)c1cc2c(Br)ccc(Br)c2nc1N	5567
CCN(CC)C(=O)C1=C(C)N(Cc2ccc(F)cc2)C(=O)C(CC(=O)NCc2cccs2)C1 (stereo unspecified)	3760
CC(=O)NC(c1ccc(N(C)C)cc1)c1cc(Cl)c2cccnc2c1O (stereo unspecified)	3231
Cc1ccc(NC(=O)CN(C)CC(=O)Nc2ccc3c(c2)OCO3)cc1	3858
CCc1cc(-c2nnn(-c3cc(C(C)C)ccc3C)c2CC)ccc1-c1cn(CCc2c[nH]c3ccccc23)nn1	3884
COc1cc2ccc(NC(C)=O)cc2cc1OC	3012
CC(=O)c1cccc(-c2ccnc3c2CC(C(=O)NCCc2ccccc2)O3)c1 (stereo unspecified)	3790

(listing goes on)
SMILES	Bead autofluor
CCCc1c(C(=O)N/N=C/c2ccc(-c3ccccc3)cc2)nnn1-c1nonc1N	3722
Nc1nonc1-n1nnc(C(=O)N/N=C/c2ccco2)c1CSc1ccc(Cl)cc1	3580
COc1ccc(S(=O)(=O)N2CCC[C@H]2C(=O)N2CCC[C@H]2C(=O)N(C)Cc2ccccc2)cc1C	5611
O=C1NC[C@H](Cc2ccccc2)N(C[C@@H]2CCCN2C[C@H](Cc2ccccc2)N2C[C@H](Cc3ccc(O)cc3)N(CCc3ccccc3)C(=O)C2=O)C1=O	6505
CC1CCN(C(=O)c2[nH]cnc2C(=O)Nc2ccccc2F)CC1	3485
CC(C)Nc1ncnc2c1ncn2[C@H]1CN(Cc2ccncc2)C[C@@H](CO)O1	2910
COc1ccc(CC(N)c2csc(NC(=O)Cc3ccccc3)n2)cc1 (stereo unspecified)	3076
COc1cccc(CNc2nc(NC(C)C)nc3ccsc23)c1OC	3822
COc1ccc(-c2ccc(CN3C(C)C(=O)N(Cc4cn(CC5CCCCC5)nn4)CCS3(=O)=O)cc2)cc1 (stereo unspecified)	3469
COc1cc2ccnc(C=NO)c2cc1OC	2864
Cc1cc(F)ccc1C(O)c1ncc(-c2cccc(OCc3ccccc3)c2)[nH]1 (stereo unspecified)	3932
CCCS(=O)(=O)NC(=O)C1(C)CCCN(C(=O)c2ccc(F)cc2Cl)C1 (stereo unspecified)	3770
CC1(c2nnnn2-c2ccc3c(c2)OCCO3)CCC(=O)N1CCc1ccc(O)cc1 (stereo unspecified)	6231
C[C@]12CCC3C(CC[C@H]4C[C@@H](O)CC[C@]34C)C1C[C@@H](O)C2=O (stereo partly specified)	3529
CCOC(=O)C(=O)N(C)c1c(CC)nc2c(OCc3cc(Cl)cc(Cl)c3)cccn12	3020
C[C@@H]1CN([C@@H](C)CO)C(=O)CCCn2nncc2CO[C@@H]1CN(C)C(=O)c1ccc2ccn(C)c2c1	3845
COc1ccc(Nc2c(-c3cccc(OC)c3)nc3nc(C)cc(C)n23)cc1	4400
COc1ccc(CC(N)c2csc(Nc3cnccn3)n2)cc1 (stereo unspecified)	3430
C[C@H]1CN([C@@H](C)CO)C(=O)c2cc(Br)cnc2O[C@@H]1CN(C)C(=O)CN(C)C	3365
CC(=O)Nc1cccc(-c2csc(C(C)(O)c3ccccc3)n2)c1 (stereo unspecified)	3681
COCCN1C[C@@H](CO)O[C@@H](n2cnc3c(NCCCO)ncnc32)C1	3622
Sc1ccccc1N=Cc1cccs1	3976
O=C1Nc2ccccc2Cc2ccccc21	3398
O=C(NCC1=C(c2ccc3ccccc3c2)C[C@@H]2CC[C@H]1N2Cc1ccco1)c1cccnc1	3787
O=C(CCN1C(=O)/C(=C\c2ccccc2F)SC1=S)N1CCOCC1	3103

The results go on.
SMILES	Bead autofluor
CC(C)C[C@H]1CN(CCCC[C@@H]2CNC(=O)C(=O)N2CCc2ccccc2)C(=O)C(=O)N1Cc1ccccc1	5767
CCOc1ccc(C(=O)CN2C(=O)NC3(CCCc4ccccc43)C2=O)cc1 (stereo unspecified)	2789
CC(C)(C)C(=O)c1c(N)[nH]c(C(=O)c2ccccc2)c1-c1cc2ccccc2nc1Cl	4077
COc1ccc(C(=O)NCCCN2CCCC2=O)cc1S(=O)(=O)N1CCOCC1	4246
O=C1CCCCC1C(O)(C(=O)c1ccccc1)c1ccccc1 (stereo unspecified)	4187
Cc1c(C(=O)NCc2ccc3c(c2)OCO3)sc(=O)n1Cc1ccc(S(=O)(=O)N(C)C)cc1	4087
Cn1cc(CN2CCC(n3nccc3NC(=O)c3ccc4c(c3)OCO4)CC2)cn1	3522
O=C(Nc1ccc(S(=O)(=O)Nc2ncccn2)cc1)c1cccc([N+](=O)[O-])c1	4405
CC(C)c1ccc(C(=O)Nc2ccc(S(=O)(=O)NC3=NCCCCC3)cc2)cc1	3882
CC(=O)Nc1cccc(-c2ccnc3c2CC(C(=O)NCc2ccncc2)O3)c1 (stereo unspecified)	4024
COc1ccc(C(=O)NCC2CCCO2)cc1S(=O)(=O)NCc1ccc(Cl)cc1 (stereo unspecified)	2898
COc1cccc(C(=O)c2ccncc2C(=O)O)c1OC	4210
COCCNC(=O)c1cc2c(c(-c3cccc(-c4cccc(OC)c4)c3)n1)[C@H](CCO)N(S(=O)C(C)(C)C)C2 (stereo partly specified)	6582
